Assay outcomes: PubChem, several laboratories
Beta apoptosis = inhibitors of cytokine-induced beta cell apoptosis, primary screen, luminescence; INS-1E cytokine-induced death, ATP luminescence, 48 h; percent of positive-control rescue, neutral wells zero; protection from apoptosis, % (no concentration beside the values); 300,000 compounds, 0.8% hits;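 active = all replicates at 75% or more, or half of them and the mean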;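 note: 0% = cytokine-treated negative control wells and 100% = positive control rescue; higher means more ATP so stronger rescue from cytokine killing; wells of about 40 µL received 100 nL stock; the first replicate is given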
AF4-AF9 inh = inhibitors of AF4 peptide binding to AF9, primary screen, biochemical, AlphaScreen, biotin-AF4 peptide, FLAG-AF9, single point; Protein AF-9 (Homo sapiens), P42568; inhibition, % at 10 µM; 350,000 compounds, 0.47% hits; AID 651704, 2012;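 active = every replicate reaching a set inhibition limit, whatever the replicate mean, cut at about 25% in these data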;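 note: 0% = plate neutral control median and 100% = total signal loss; the record names both 10 and 1 µM as test concentration; the first replicate is given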
Target sequence (P42568 whole entry, looked up): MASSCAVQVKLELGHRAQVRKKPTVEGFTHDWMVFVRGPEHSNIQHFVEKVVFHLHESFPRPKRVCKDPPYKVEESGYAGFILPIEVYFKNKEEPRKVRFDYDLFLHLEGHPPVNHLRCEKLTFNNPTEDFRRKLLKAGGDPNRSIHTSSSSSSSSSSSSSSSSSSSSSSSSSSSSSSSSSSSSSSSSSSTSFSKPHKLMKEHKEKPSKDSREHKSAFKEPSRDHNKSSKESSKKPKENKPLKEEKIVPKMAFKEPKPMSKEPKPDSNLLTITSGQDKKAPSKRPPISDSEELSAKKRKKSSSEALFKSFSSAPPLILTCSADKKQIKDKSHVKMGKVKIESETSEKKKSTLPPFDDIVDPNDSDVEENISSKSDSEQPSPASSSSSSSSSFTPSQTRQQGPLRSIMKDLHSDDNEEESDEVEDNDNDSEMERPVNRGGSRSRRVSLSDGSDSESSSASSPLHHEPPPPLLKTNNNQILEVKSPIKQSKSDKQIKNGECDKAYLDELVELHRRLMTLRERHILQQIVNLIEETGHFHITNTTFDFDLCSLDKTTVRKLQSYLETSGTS
T cruzi inh = inhibitors of intracellular T. cruzi growth, primary screen, luminescence, NIH3T3 host cells; inhibition, % (test concentration not listed); T. cruzi beta-gal in NIH3T3, 90 h; AID 1885, 2009; 300,000 compounds, 1.4% hits;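 active = mean inhibition across valid replicates above about 55%, limit read from the data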;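 note: signal also drops with host cell toxicity which is not excluded here; 0% = plate median of DMSO wells and 100% = zero luminescence signal; higher percent means less beta-gal luminescence so fewer parasites; stock transfer was 50 nL into about 50 µL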
A1 inh = caspase 3/7 activation in MEF A1-2A-BIM cells, primary screen, A1 inhibitor project, cell-based, luminescence, HTS. Caspase-Glo 3/7 luminescence, 3 h; percent of clofoctol response, vehicle zero. caspase activation, % (test concentration not listed). 330,000 compounds, 0.066% hits;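 active = over half of replicate activation scores above 10%, or exactly half above 10 with the replicate mean above 10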;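 note: wells of about 30 µL received 50 nL stock; many hits fall short of the cut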
UCH37 DUB inh = inhibitors of human UCH37 deubiquitinase, primary screen, biochemical, Ub-AMC cleavage, fluorescence; purified proteasome/UCH37; inhibition, % (no concentration beside the values); 330,000 compounds, 0.33% hits; AID 588478, 2011;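 active = mean of two replicates above 20%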;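 note: 0% = compound-free wells with enzyme and 100% = wells lacking proteasome; stock transfer was 100 nL into about 20 µL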
Target sequence (Q9Y5K5 whole entry, looked up): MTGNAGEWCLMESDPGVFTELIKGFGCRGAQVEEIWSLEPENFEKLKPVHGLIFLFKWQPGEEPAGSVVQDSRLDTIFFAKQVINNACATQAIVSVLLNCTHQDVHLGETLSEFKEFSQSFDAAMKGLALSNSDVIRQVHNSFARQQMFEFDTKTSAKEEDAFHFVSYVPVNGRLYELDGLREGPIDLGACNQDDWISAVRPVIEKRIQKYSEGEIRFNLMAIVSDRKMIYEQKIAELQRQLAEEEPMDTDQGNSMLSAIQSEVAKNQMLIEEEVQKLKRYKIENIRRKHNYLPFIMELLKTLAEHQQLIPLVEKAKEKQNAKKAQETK
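Schedule: 30 min plus 25 min, room temperature / Material: human UCH37 within purified proteasomes / Technique: AMC fluorescence intensity at 355/460 nm / Buffer or medium: pH 7.4 Tris-HCl (50 mM) with ovalbumin, ATP-MgCl2, DTT / Controls: wells without proteasome as full block, compound-free enzyme plus substrate as uninhibited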
FGF22 binding = binders of human FGF22 protein, primary screen, FGF22 synaptogenesis inhibitor project, biophysical, thermal shift, single point; recombinant FGF22 thermal shift, SYPRO orange fluorescence; percent of sucrose octasulfate shift, DMSO zero; calls only at 9.99 µM; 340,000 compounds, 1.5% hits;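 active = melting point raised past a set limit in the mean and every replicate; three in four hits are not shown here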
Target sequence (Q9HCT0 whole entry, looked up): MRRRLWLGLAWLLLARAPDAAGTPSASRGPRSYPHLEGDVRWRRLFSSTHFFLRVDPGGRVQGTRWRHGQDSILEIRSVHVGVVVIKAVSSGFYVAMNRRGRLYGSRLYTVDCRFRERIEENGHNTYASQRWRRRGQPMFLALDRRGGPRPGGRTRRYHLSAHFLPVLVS
Ecoli rRNA inh = reduced GFP signal of wild-type E. coli, primary screen, bacterial rRNA inhibitor project, GFP/RFP fluorescence, OD600, single point. E. coli WT GFP vs humanized-ribosome RFP mutants, 24 h; hits give low values; DMSO median 0, no signal -100. GFP signal change (wild-type ribosome), % (no concentration beside the values). 350,000 compounds, 1.6% hits;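 active = significant combined selectivity score with lowered wild-type GFP, culture density cut under 30%, mutant RFP and density less affected; inactive = any of these conditions unmet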; note: one replicate is shown; some compounds called inactive have numbers as strong as hits
E coli growth = E. coli growth inhibition, primary screen, OD600; Escherichia coli growth, 23 h; hits give low values; OD600 absorbance (concentration not given with the values); 330,000 compounds, 0.21% hits; AID 1053175, 2014;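 active = OD600 absorbance below the run mean of sample wells minus 3.6 SD, in any replicate, cut at about 0.56 in these data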;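 note: stock transfer was 300 nL into about 60 µL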
Ecoli rRNA inh OD600 = second read-out of Ecoli rRNA inh, no call of its own (marks repeat the call); OD600 change, %; measured here: OD600 growth;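 optical density of the mix in the first replicate; 0 = DMSO median and -100 = no signal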
Ecoli rRNA inh RFP = also measured in Ecoli rRNA inh; calls as there; RFP signal change, %; measured here: RFP humanized mutant strains;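 first replicate; 0 = DMSO median and -100 = no signal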
Numbers without * were called inactive; i = inactive; . = not tested or not shown; & = joins results of further samples. Only part of the results is shown (hit frequency here may not be typical).

Below each SMILES: Beta apoptosis	AF4-AF9 inh	T cruzi inh	A1 inh	UCH37 DUB inh	FGF22 binding	Ecoli rRNA inh	Ecoli rRNA inh OD600	Ecoli rRNA inh RFP	E coli growth
1) O=C(NC(=S)Nc1ccc(N2CCCC2)cc1)c1ccc(F)cc1
  .	1.7	35	-0.3	.	i	3	21	0.2	.
2) CCOc1ccc(S(=O)(=O)NCc2ccccn2)cc1NC(=O)c1ccccc1F
  7	-1.7	7	-0.3	-15	i	19	41	0.1	0.69
3) Cc1cccc(-n2ncc3c(NCCCn4ccnc4)ncnc32)c1
  -1	3.5	-7	0.2	2.9	i	-5	-20	-1.4	0.75
4) Cc1cc(OCC(=O)N2CCOCC2)ccc1[N+](=O)[O-]
  -2	-16	-5	-1.4	3.4	i	3	1	-0.3	0.7
5) O=S(=O)(NC1=NCCC1)c1cccs1
  -1	.	17	-0.1	0.3	.	.	.	.	0.6
6) NC(=O)c1nsc(C(=O)N(c2ccc(Cl)cc2)C(C(=O)NCC2CCCO2)c2cccs2)c1N (centres undefined)
  -3	-8.3	-3	2.1	-71	.	13	10	13	0.69
7) COc1cc(NS(=O)(=O)c2ccc(NC(=O)/C=C/c3ccc([N+](=O)[O-])cc3)cc2)ncn1
  -1	-0.7	19	-0.4	6.5	i	-1	-2	-7.1	0.63
8) Clc1ccc(N=c2ssnc2Cl)cc1
  12	.	-10	-0.4	1.7	.	.	.	.	0.57
9) COc1cccc(C(=O)c2c[nH]c(C(=O)NCCCN(C)C)c2)c1
  -5	-1.2	49	-0.1	1.2	i	17	18	7.0	0.63
10) O=C(NCCc1nc2ccccc2[nH]1)/C(=C/c1ccc2c(c1)OCO2)NC(=O)c1ccccc1
  2	4.7	-23	0.0	6.6	i	-10	-22	2.3	0.73
11) O=C(Nc1ccc(Br)cc1)c1cc(S(=O)(=O)Nc2ccccn2)ccc1Cl
  .	1.1	5	0.5	-1.0	i	2	10	4.7	0.65
12) O=C(COC(=O)Cc1cccs1)Nc1ccc(F)c(F)c1F
  -7	.	-12	-1.2	1.0	.	.	.	.	0.69
13) COCCNC(=O)C(=O)NCC1OCCN1C(=O)c1ccc(Cl)cc1 (centres undefined)
  -6	0.0	-6	0.2	1.4	i	.	.	.	0.78
14) COc1ccccc1NC(=O)N1CCCC1C(=O)NCc1ccccc1Cl (centres undefined)
  2	5.9	2	0.1	1.4	i	2	6	0.1	0.68
15) CCOC(=O)C1(Cc2ccc(Cl)cc2)CCN(Cc2nccn2CC)CC1
  1	.	6	-0.5	1.2	.	.	.	.	0.69
16) CCOc1ccc(C(=O)CCC(=O)N2CCN(c3ncccn3)CC2)cc1
  -2	1.1	2	-0.4	0.0	i	-7	-6	-0.1	0.64
17) COc1ccc(OC)c(CNC(=O)C(C)n2nc(C)c3c(C)n(-c4ccccc4)nc3c2=O)c1 (centres undefined)
  0	-0.1	6	0.8	-0.9	i	1	3	-2.9	0.7
18) CCN(CC)S(=O)(=O)c1cc(Br)ccc1OC
  -9	.	-11	0.5	1.4	.	.	.	.	0.69
19) CC(=O)c1c(C)[nH]c(C(=O)N2CCN(S(=O)(=O)c3ccc(C)cc3C)CC2)c1C
  -2	6.7	.	-0.6	5.2	i	-5	-6	0.3	0.67
20) Cn1c(CCN2CCN(c3ccccc3)CC2)nc2cc(NC(=O)c3ccco3)ccc21
  -1	.	1	0.9	3.4	.	.	.	.	0.7
21) O=C(c1ccccc1F)N1CCCC(c2ccccc2)C1 (centres undefined)
  -6	4.1	-15	0.1	-3.6	i	-17	-30	-13	0.71
22) COc1ccc(-c2cc(C)no2)cc1S(=O)(=O)NCCCN(C)Cc1ccccc1
  1	1.3	31	0.5	2.7	i	-1	-1	-4.0	0.72
23) CCCC/C(O)=C/c1nc2ccccc2[nH]c1=O
  -10	.	5	-1.1	-1.4	.	.	.	.	0.69
24) CCN(CC(N)=O)S(=O)(=O)c1ccc(Br)cc1
  -2	-12	-21	0.0	1.6	.	15	9	4.6	0.7
25) Cc1cc(C)n(-c2cccc(F)n2)n1
  -3	0.5	-2	0.0	1.7	i	13	1	-5.9	0.67
26) CN(C)c1ccc(C(CN)c2c[nH]c3ccccc23)cc1 (centres undefined)
  -6	30*	-3	0.9	3.8	.	-13	0	-3.4	0.64
27) COc1ccc(OC)c2sc(NNC(=O)C3COc4ccccc4O3)nc12 (centres undefined)
  3	1.9	12	0.0	1.0	i	-50	-76	-13	0.68
28) CCCN=CC1=C(O)CC(c2ccccc2)CC1=O (centres undefined)
  -5	.	-4	-0.5	1.0	.	.	.	.	0.71
29) O=C1c2ccc([N+](=O)[O-])cc2S(=O)(=O)N1Cc1ccccc1
  9	3.4	-12	0.4	-2.1	i	2	9	0.7	0.66
30) CCCc1cc2c(cc1NC(=O)c1ccco1)OCO2
  .	-4.3	-13	0.3	0.3	i	-8	-27	-22	0.71
31) COc1ccc(S(=O)(=O)N(C)C[C@H]2Oc3ccc(NC(=O)Nc4c(C)noc4C)cc3C(=O)N([C@H](C)CO)C[C@@H]2C)cc1
  0	0.7&-1.2	.	3.8	2.9	i	5	10	-1.1	.
32) c1ccc(-c2ccc3nnnn3n2)cc1
  -4	.	-8	-1.0	1.3	i	11	-5	1.8	0.63
33) CCCN1CCN(C(=O)Cn2cnc3sc(C)c(S(=O)(=O)N4CCC(C)CC4)c3c2=O)CC1
  -8	1.5	-1	0.2	0.3	.	.	.	.	0.66
34) CC(C)C(=O)N(c1cc2sc(=O)oc2c2ccccc12)S(=O)(=O)c1cccs1
  -3	3.2	.	0.9	3.2	i	-9	-3	13	0.67
35) O=C(COc1ccc(Br)cc1)NCCNC(=O)c1ccccn1
  4	-0.2	-15	-0.4	2.5	i	2	-3	1.4	0.69
36) CN(Cc1nc(-c2ccc(Cl)cc2)no1)C(=O)c1ccc2c(c1)OCO2
  -6	.	-11	0.0	3.4	.	.	.	.	0.69
37) C[C@@]12CCC[C@H](O1)[C@@H]([C@H](O)c1ccccc1)O2
  2	-4.7	.	1.4	0.0	i	24	10	-1.4	.
38) C/C(=C\c1ccccc1)C(=O)N1CCN(c2cccc(C(F)(F)F)c2)CC1
  0	.	-24	0.5	0.9	.	.	.	.	0.68
39) CCOC(=O)c1cc(-c2ccccc2)sc1NC(=O)COC(=O)c1ccc(Cl)c(S(N)(=O)=O)c1
  5	.	18	0.4	-14	.	.	.	.	0.7
40) CC(C)OCCCNC(=O)CN1C(=O)/C(=C/c2ccccc2F)Oc2ccccc21
  1	-1.1	5	-0.6	-488	i	1	5	1.8	0.67
41) CCCCCn1c(CN2CCN(c3cc(Cl)ccc3C)CC2)nc2c1c(=O)[nH]c(=O)n2C
  10	.	44	0.4	-0.3	.	.	.	.	0.73
42) CN1CCN(c2ccccc2NC(=O)c2cccc(OCc3ccccc3)c2)CC1
  .	.	37	0.1	0.7	.	.	.	.	0.69
43) Cc1cc(C)c2[nH]c(O)c(N=NC(=O)c3cc4c(s3)CCCC4)c2c1
  .	.	20	0.0	3.5	.	.	.	.	0.66
44) CC(=O)c1ccc(C(C)(C)c2ccc(C(C)=O)s2)s1
  0	.	-3	0.6	0.8	.	.	.	.	0.68
45) Cc1cc(NS(=O)(=O)c2ccc(NC(=O)Nc3ccc4c(c3)OCO4)cc2)no1
  .	.	-24	0.0	2.4	.	.	.	.	0.68
46) CCC(C)C(NS(=O)(=O)c1ccc(C)cc1)C(=O)Oc1ccc2c3c(c(=O)oc2c1)CCC3 (centres undefined)
  2	7.3	10	-0.1	-24	i	13	9	-2.6	0.73
47) NC(=O)CC1C(=O)N(c2ccccc2)C(=S)N1NC(=O)c1ccccc1 (centres undefined)
  3	-1.9	-8	-0.5	0.8	i	4	11	-5.4	0.59
48) CCCCCCCCCCCCCCCC(=O)OC/C=C(C)/C=C/C=C(C)/C=C/C1=C(C)CCCC1(C)C
  -3	-3.1	.	-0.5	14	i	.	.	.	0.68
49) O=[N+]([O-])c1c(NCCO)cc(N2CCCCC2)c2nonc12
  7	0.1	3	0.2	13	i	-13	-16	-5.1	0.65
50) Cc1cccc(N(C)C(=S)Oc2ccc3ccccc3c2)c1
  -3	-4.0	-9	0.8	2.0	i	.	.	.	0.71
51) CCC(C)NC(=O)c1ccc(Cl)c(S(=O)(=O)Nc2ccccc2N2CCOCC2)c1 (centres undefined)
  -8	-7.1	.	0.9	2.4	i	-9	-17	-0.1	0.71
52) CCc1c(C)c(C#N)c2[nH]c3ccccc3n2c1=S
  6	-2.2	37	0.2	-3.9	i	-12	-10	3.2	0.61
53) CN1C(=O)C(O)(CC(=O)c2ccccn2)c2cc(Br)ccc21 (centres undefined)
  -13	.	-15	-1.1	-1.4	.	.	.	.	0.72
54) CC(=O)NC1C(=O)N=C(SCC(=O)Nc2cccc(Cl)c2)NC1=O (centres undefined)
  -10	-5.4	-22	-0.6	8.3	i	-7	1	-2.1	0.68
55) O=c1nccc(N/N=C/c2ccccc2)[nH]1
  -2	5.3	-13	-11	.	i	10	8	-0.2	.
56) O=Cc1c(-c2ccccc2)nc2ccccn12
  1	2.9	-8	-1.0	2.0	i	5	-6	-0.2	0.69
57) CC1(C)Cc2c(sc3[nH]c(=S)n(Cc4ccco4)c(=O)c23)CO1
  -8	.	1	1.5	10	.	.	.	.	0.67
58) O=C(CSc1nccc(=O)[nH]1)NCc1ccco1
  -7	1.6	-2	0.2	3.0	i	21	9	-5.4	0.69
59) CCCN(CCC)C(=O)C(c1ccccc1)C1(O)CCCCC1 (centres undefined)
  .	-1.6	.	.	5.6	i	-1	-41	-11	0.71
60) CN(C(=O)COC(=O)c1ccc(CN2CCCC2=O)cc1)c1ccccc1
  -2	-4.2	.	1.1	0.7	i	0	2	1.0	0.67
61) COc1ccccc1C(=O)Nc1c(C)cc(Br)cc1C
  0	-1.2	-5	0.6	3.1	i	-31	-35	-14	0.67
62) CCCCC(=O)NC(NC(=S)N1CCCCCC1)C(Cl)(Cl)Cl (centres undefined)
  1	.	3	-0.5	7.0	.	.	.	.	0.67
63) CCCNC(=O)NC(=O)CSc1nnc(C)n1N
  -9	.	.	0.6	-0.4	.	.	.	.	0.74

An excerpt from above in order of SMILES length, highest first:
Below each SMILES: Beta apoptosis	AF4-AF9 inh	T cruzi inh	A1 inh	UCH37 DUB inh	FGF22 binding	Ecoli rRNA inh	Ecoli rRNA inh OD600	Ecoli rRNA inh RFP	E coli growth
60) CN(C(=O)COC(=O)c1ccc(CN2CCCC2=O)cc1)c1ccccc1
  -2	-4.2	.	1.1	0.7	i	0	2	1.0	0.67
61) COc1ccccc1C(=O)Nc1c(C)cc(Br)cc1C
  0	-1.2	-5	0.6	3.1	i	-31	-35	-14	0.67
56) O=Cc1c(-c2ccccc2)nc2ccccn12
  1	2.9	-8	-1.0	2.0	i	5	-6	-0.2	0.69
